# CtBP-E1A blk = blocks the CtBP interaction with E1A; activity change, % (no concentration beside the values); AID 651724; AlphaScreen GST-E1A/His-CtBP binding, 1536-well; stronger effect = lower value; control for the full effect not named in the record; actives 0.49% (n = 340,000); in the data active means activity change below about -65%; inconclusive means about -30% to -65%; inactive means above about -30%; further: on the % scale 0 is the no-effect control and ±100 the full control effect; compound concentration not given in the record
#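 Homogeneous bead-based format: GST-tagged E1A captured on glutathione donor beads, His-tagged CtBP on nickel acceptor beads; compounds precede bead addition by 2 h at 37 °C.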
# D2 agonist = agonists of human D2 dopamine receptor (beta-arrestin). AID 624465. activation, % (test concentration not listed). actives 0.084% (n = 360,000). P14416. DiscoveRx PathHunter D2 beta-arrestin, luminescence, 90 min; 100% = 57 uM dopamine signal; in the data active = activation above about 40%; inconclusive = about 15% to 40%; inactive = below about 15%; further: compound concentration not given in the record; the text of the record calls up to 30% inactive
# Target sequence (P14416 whole entry, looked up): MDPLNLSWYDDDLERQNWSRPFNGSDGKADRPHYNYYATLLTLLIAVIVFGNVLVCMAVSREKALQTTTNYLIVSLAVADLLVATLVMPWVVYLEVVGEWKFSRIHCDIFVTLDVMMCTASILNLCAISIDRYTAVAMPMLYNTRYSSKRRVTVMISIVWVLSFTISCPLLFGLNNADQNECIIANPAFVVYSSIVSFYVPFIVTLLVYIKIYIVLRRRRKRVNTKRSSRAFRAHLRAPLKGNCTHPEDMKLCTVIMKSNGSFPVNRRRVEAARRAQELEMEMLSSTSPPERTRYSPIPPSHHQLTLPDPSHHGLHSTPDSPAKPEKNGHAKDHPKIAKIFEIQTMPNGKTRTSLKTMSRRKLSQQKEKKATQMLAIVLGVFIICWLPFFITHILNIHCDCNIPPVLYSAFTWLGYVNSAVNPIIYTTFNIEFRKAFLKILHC
#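 DiscoveRx PathHunter D2 beta-arrestin cells (2,100/well) attached overnight, then compound-stimulated 90 min at 37 C in HBSS/10 mM HEPES/0.1% Tween-20 buffer; beta-galactosidase complementation read by luminescence after 1 h at ambient temperature. Dopamine 57 uM final (EC100) as control.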
# TRPML1 ag = human mucolipin-1 channel agonism. activation, % (concentration not given with the values). Q9GZU1. actives 0.12% (n = 410,000). TRPML1-expressing cells, Ca2+ dye fluorescence, FDSS; host cell line not named in the record; reference of the full effect not given here. AID 624414; in the data active = activation above about 50%; inconclusive = about 30% to 50%; inactive = below about 30%; further: 0% is about no effect; the text of the record puts the active cut at 80%
# Target sequence (Q9GZU1 whole entry, looked up): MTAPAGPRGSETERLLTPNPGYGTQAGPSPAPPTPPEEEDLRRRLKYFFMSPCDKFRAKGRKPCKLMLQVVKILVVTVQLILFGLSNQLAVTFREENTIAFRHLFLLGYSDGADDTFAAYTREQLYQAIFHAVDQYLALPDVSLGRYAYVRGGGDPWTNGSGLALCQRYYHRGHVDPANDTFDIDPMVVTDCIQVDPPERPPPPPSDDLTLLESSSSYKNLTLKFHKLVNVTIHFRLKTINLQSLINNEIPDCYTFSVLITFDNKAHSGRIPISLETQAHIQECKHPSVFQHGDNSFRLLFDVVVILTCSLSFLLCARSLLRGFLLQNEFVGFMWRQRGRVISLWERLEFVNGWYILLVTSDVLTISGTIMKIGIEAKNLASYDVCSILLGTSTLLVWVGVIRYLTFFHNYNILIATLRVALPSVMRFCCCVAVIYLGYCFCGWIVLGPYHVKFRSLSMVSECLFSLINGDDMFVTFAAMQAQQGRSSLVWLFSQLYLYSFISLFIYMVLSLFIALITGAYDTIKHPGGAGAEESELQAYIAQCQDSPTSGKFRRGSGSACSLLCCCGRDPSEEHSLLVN
#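 Calcium fluorescence on an FDSS kinetic reader gave the read-out. Tet-induced TRPML1-DL cells were plated overnight, dye-loaded (Ca8 with quencher, 45-90 min, room temperature, dark), then read 110 s after compound addition, and again 110 s after 4uM final 54-4 (EC80).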
# Six1-Eya2 inh = blocks human Six1 binding to Eya2 | Q15475+O00167 | AlphaScreen GST-Six1/His-Eya2 binding, biochemical; stronger effect = lower value; control for the full effect not named in the record | activity change, % (concentration not given with the values) | actives 0.56% (n = 360,000); in the data active = activity change below about -65%; inconclusive = about -30% to -65%; inactive = above about -30%; further: on the % scale 0 is the no-effect control and ±100 the full control effect
#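 Six1/Eya2 binding was read as AlphaScreen signal after compounds were pinned into GST-Six1 plus His-tagged Eya2 (5X stock 250/500 nM) in pH 8.0 Tris/NaCl/TCEP buffer, beads added, then incubated 1 h, 37 C, dark.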
# PINK1 modulator = changes PINK1 expression; actives 0.2% (n = 410,000); PINK1 immunofluorescence, high-content cytometry, 24 h; Potency, µM (doses to about 76.6 µM), inactives show at the highest dose activation (PINK1 increase), hits mostly activators; active = well fitted activation curve with a large enough effect; inconclusive = small, poorly fitted or top-dose-only effect; inactive = flat fitted curve, though single readings scatter; cell line not stated here;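 further: potency means the concentration at half of the fitted maximal effect; % of control where 0% means no effect; nearly all actives have a fitted effect of over 65% in size; a mitochondrial uncoupler was the plate control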
#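 A stable cell line was treated with compounds at 5 concentrations for 24 hours, with CCCP as control. PINK1 levels and mitochondrial localization were measured by immunofluorescence with mitochondrial, cell and nuclear markers after fixation, read by laser-scanning cytometry.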
# D2 PAM = potentiates the human D2 dopamine receptor allosterically; P14416; DiscoveRx D2 beta-arrestin cells, luminescence, 90 min; 100% = 57 uM dopamine signal; potentiation, % (test concentration not listed); actives 0.23% (n = 360,000); AID 624464; active = potentiation of 50% or more; inconclusive = 30% to 50%; inactive = 30% or less;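 further: compound concentration not given in the record; tested on top of an EC20 dose of dopamine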
#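 PathHunter D2 cells, attached overnight at 37 deg C, received compound in DMSO plus dopamine at EC20 (50 nM final) for 90 min at 37 deg C. Beta-arrestin recruitment was read as luminescence after 1 h with detection reagent at ambient temperature.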
# * hit, by the source's call; ? = inconclusive; / = not tested or not shown; [ ] = dose if it differs, or a comment.
SMILES,CtBP-E1A blk,D2 agonist,TRPML1 ag,Six1-Eya2 inh,PINK1 modulator,D2 PAM
CCCCCCCNC(=O)C1(CC2CC(c3ccc(Cl)cc3)=NO2)CCN(C(=O)C2(C)CC2)CC1 (stereo unspecified),/,-1.0,0.5,-6,5.8%,-6
O=C(CSc1nc2ccc(NC(=O)c3ccccc3C(=O)O)cc2s1)Nc1c(Cl)cccc1Cl,-5,7.0,1.9,-3,-0.7%,3
CCOc1ccc(/C=C/C(=O)c2c(O)cc(C)oc2=O)cc1,-6,3.3,0.6,-9,1.6%,1
C[C@]12C=CC(=O)C=C1CC[C@@H]1C2[C@@H](O)C[C@@]2(C)C1CC[C@]2(O)C(=O)COC(=O)CCC(=O)O (stereo partly specified),6,-2.4,-0.9,-1,-0.3%,-1
Cc1ccccc1C(=O)NNC(=O)c1cccn1C,-7,-1.3,1.2,2,-2.9%,-67
O=C(Cn1cccc1)Nc1ccc(OC(F)(F)F)cc1,-7,-2.2,0.6,-6,-3.2%[38.3 µM],-9
COC(=O)C1=C(C)N(C)C(C)=C(C(=O)OC)C1c1ccncc1,0,-1.3,-1.0,7,-2.5%,-11
Cn1c(=O)n(C)c2cc(NC(=O)c3cccc([N+](=O)[O-])c3)c(Br)cc21,-21,-2.9,-0.6,23,1.9%,-4
COc1ccc(Cc2nnc(NC(=O)c3ccccc3F)s2)cc1,5,-1.0,-1.5,2,7.0%,-3
COc1ccc(N(CC(=O)Nc2ccc(F)c(F)c2)S(=O)(=O)c2c(C)[nH]c(=O)[nH]c2=O)cc1,-17,-2.9,-0.5,-3,0.7%,-21
C=CCn1c(SCC(=O)NC2CCCC2)nc2sc(C)cc2c1=O,-23,-3.4,2.1,3,10%,6
N#CCc1ccccc1C(=O)OCC(=O)N(Cc1ccccc1)Cc1ccccc1,/,7.0,0.1,-2,0.8%,13
CC(=O)N1CCN(c2ccc(NC(=O)COc3ccc(Cl)cc3Cl)cc2)CC1,-30,-2.0,-0.1,-11,3.7%,7
CC(=O)c1ccc(NS(=O)(=O)c2cccc(C(=O)Nc3ccccc3C(=O)O)c2)cc1,/,6.2,/,-8,2.8%,?
CN(C(=O)c1ccccc1)C1(C)CCS(=O)(=O)C1 (stereo unspecified),6,-2.7,-0.6,11,4.2%,-3
CC(=O)NNc1nc(-c2ccc(C)cc2)cs1,/,8.9,-0.1,-3,0.4%,-1
O=S(=O)(c1ccc(F)cc1)N1CN(Cc2ccco2)c2nc3ccccc3nc21,-11,0.1,1.7,-21,/,7
O=C(NCC1CCCO1)c1cc(C(=O)c2ccc(Cl)cc2Cl)c[nH]1 (stereo unspecified),/,-3.4,0.2,-14,2.0%,-6
S=c1nc(C2CC2)[nH]c2ccccc12,-1,-11,-1.1,-7,-0.6%,-35
COc1cccc(OCCNS(=O)(=O)c2cccc([N+](=O)[O-])c2)c1,0,2.5,1.7,6,-0.6%,1
CCCN(C(=O)C1=COCCO1)c1c(N)n(Cc2ccccc2)c(=O)[nH]c1=O,-4,-5.5,0.5,-12,-1.2%,-5
COc1ccccc1Nc1nc(-c2ccccc2)nc2ccccc12,/,-6.3,1.6,88,2.2%,-8
Cc1ccc(S(=O)(=O)Nc2cc(=O)[nH]c(SCC(=O)Nc3ccccc3Cl)n2)cc1,5,-1.1,1.4,-9,3.1%,-10
COC(=O)CSc1nnc(C)n1-c1cccc(OC)c1,7,-0.5,-0.3,9,0.9%,5
Cc1ccc(OCCNC(=O)CCc2ccccc2)cc1C,-3,0.0,1.9,5,-0.2%,-14
COC(=O)c1nn(-c2cccc(Cl)c2)ccc1=O,1,0.3,0.2,1,0.2%,-21
O=C(Nc1ccccc1N1CCOCC1)C1CCN(S(=O)(=O)c2ccccc2F)CC1,10,-0.5,1.7,0,-2.3%,1
CC(=O)C1=CCC(c2ccc(C)cc2)N(S(=O)(=O)c2ccc(Cl)cc2)C1 (stereo unspecified),1,-4.5,0.9,4,2.1%,-7
Cc1c(Cl)cccc1NC(=S)NC1CCN(C(C)C)CC1,3,-3.5,0.0,-3,0.6%,-3
CNC(=O)n1ccc(C(=O)N2CCCCC2)n1,9,-4.1,-0.8,-5,1.7%,10
COc1ccccc1NC(=O)CC1C(=O)Nc2ccccc2N1C(=O)c1ccccc1 (stereo unspecified),-2,-2.0,-0.9,8,-0.9%,-6
CC1CN(S(=O)(=O)c2cccc(C(=O)OC/C(O)=C(\C#N)c3nc4ccccc4[nH]3)c2)CC(C)O1 (stereo unspecified),-7,3.1,1.4,-14,5.2%,5
CCCOC(=O)CCCN1C(=O)/C(=C2\SC(=S)N(CCCC(=O)OCCC)C2=O)SC1=S,-7,14,0.5,3,1.5%,13
O=C(Cc1ccccc1)c1ccc(O)cc1O,29,-3.7,-0.1,-3,2.7%,-10
COc1ccc(N2CCN(c3ccc(N4C(=O)CC(C)C4=O)cc3[N+](=O)[O-])CC2)cc1 (stereo unspecified),-13,-2.6,1.4,2,-0.9%,-1
COC(=O)C12CCC3(SCCS3)C(C(=O)OC)(CCC13SCCS3)C2,12,-2.1,-0.6,-16,-2.1%,-4
O=C(COc1ccc(F)cc1Br)NCC1(N2CCOCC2)CCCCC1,-4,3.5,8.5,-1,-0.8%,2
CN(C(=O)C1CCN(S(=O)(=O)c2cccc3nonc23)CC1)C1CCCCC1,-11,5.6,-0.6,6,1.0%,-2
O=C(COC(=O)c1ccccc1NS(=O)(=O)c1cccs1)NC1CCCCC1,3,-2.9,-0.8,-12,2.3%,-4
CCOC(=O)c1c(-c2ccccc2)csc1NC(=S)N(CC)CC,13,-1.1,0.6,11,6.0%,-2
N#Cc1cc(C(=O)c2cc(Br)ccc2O)cn(Cc2ccccc2)c1=O,-1,12,1.0,-8,?,1
Cc1nnc(NC(=O)c2ccccc2Br)s1,5,-1.1,-0.5,2,0.6%,-20
CCN1CCN(c2ccc(NC(=O)c3ccc4c(c3)[nH]c(=O)n4Cc3ccc(OC)cc3)cc2)CC1,9,-0.3,-0.1,-20,6.8%,-16
CN(CC(=O)Nc1ccc(Cl)cc1)C(=O)CNC(=O)c1ccc2ccccc2c1,1,0.5,0.2,-1,14%,3
CC(C)CC(=O)NC(=S)N1CCN(c2ccc([N+](=O)[O-])cc2Cl)CC1,-22,-2.1,0.1,-10,1.4%,-1
Cc1ccc(CN2C(=O)C(C)Nc3ncnc(N4CCOCC4)c32)cc1 (stereo unspecified),5,-2.3,0.8,4,1.9%,-11
COc1cc(NC(=O)C2CCN(S(=O)(=O)c3ccc4[nH]c(=O)oc4c3)CC2)cc(OC)c1,-26,2.2,-1.0,?,-0.6%,-16
CCOC(=O)c1cn(CC)c2cc(N3CCSCC3)c(F)cc2c1=O,1,-0.7,0.4,1,3.2%,-17
Cc1ccccc1C(=O)NNC(=O)C(C)N1C(=O)c2ccccc2C1=O (stereo unspecified),9,1.4,0.7,4,/,1
O=C(Nc1cccc(Cl)c1)NC1(C(=O)NCc2cccs2)CCCCC1,5,-1.4,1.0,0,2.4%[38.3 µM],-33
CCOc1cc(C(=S)N2CCN(C)CC2)ccc1OCC(=O)N1CCCC1,-6,-1.8,0.1,-1,0.5%,3
O=C(CCCCCNc1nc(=S)[nH]c2ccccc12)NCCc1ccccc1,-14,0.5,0.2,?,9.1%,-8
Cc1noc(C)c1C(=O)OCC(=O)Nc1ncc(C(F)(F)F)cc1Cl,7,5.6,2.8,7,0.6%,2
Cc1ccc(OCC(=O)N/N=C2\CC(=O)CC(C)(C)C2)c(Br)c1,5,-2.2,1.9,8,-0.7%,-15
Cc1ccc(S(=O)(=O)Nc2c(C)n(C)n(-c3ccccc3)c2=O)cc1C(=O)OCC(=O)N1CCCC(C)C1 (stereo unspecified),6,0.6,0.6,6,-1.7%,-2
O=C(CSc1ccc(-c2ccc(F)cc2)nn1)NCC1CCCO1 (stereo unspecified),4,-1.9,-0.6,0,-1.5%,-6
CC(C)Sc1nc(N)nc(-c2cccs2)c1C#N,-2,5.9,0.1,0,7.1%,-6
CCC(C)(C)NC(=O)C(c1ccc(OC)cc1)N(C(=O)CCC(=O)Nc1cc(C)on1)c1ccccc1F (stereo unspecified),-9,1.3,0.1,7,0.8%,3
O=P(NC1CCCCC1)(c1ccccc1)c1ccccc1,7,-2.1,0.9,-4,-2.3%,-3
O=S(=O)(c1ccccc1)N(Cc1ccccn1)Cc1ccccn1,/,-1.1,0.5,2,0.7%,1
# The list continues:
SMILES,CtBP-E1A blk,D2 agonist,TRPML1 ag,Six1-Eya2 inh,PINK1 modulator,D2 PAM
CN(Cc1nc2c(s1)CCCC2)C(=O)CCc1nnc(-c2ccccc2)o1,-1,-2.8,1.3,6,1.8%,-3
CCCCn1c(N)c(N(CCC(C)C)C(=O)COC(=O)c2sccc2C)c(=O)[nH]c1=O,-5,0.2,-0.2,-1,-1.1%,-5
CCOc1ccc(/C(C)=N/NC(=O)Cn2nc([N+](=O)[O-])cc2C)cc1,10,-2.3,1.2,0,7.4%,-21
O=C(c1cnccn1)N(c1ccccc1)C1(C(=O)NC2CCCC2)CCCCC1,5,-2.1,-0.4,5,0.1%,21
O=C(NCc1csc(-c2cccs2)n1)c1ccsc1,2,-2.2,-1.4,-3,0.8%,-5
COc1ccc(CCCNC(=O)C2CCC(=O)N(Cc3ccccc3F)C2)cc1 (stereo unspecified),5,5.7,-0.9,2,-0.2%,1
Cc1ccc(CN2CC(N3CCN(c4ccccn4)CC3)CS2(=O)=O)cc1 (stereo unspecified),1,7.0,-0.4,-6,0.6%,-4

# Ten entries from above, sorted by length of the SMILES, rising:
SMILES,CtBP-E1A blk,D2 agonist,TRPML1 ag,Six1-Eya2 inh,PINK1 modulator,D2 PAM
CC(C)Sc1nc(N)nc(-c2cccs2)c1C#N,-2,5.9,0.1,0,7.1%,-6
O=C(NCc1csc(-c2cccs2)n1)c1ccsc1,2,-2.2,-1.4,-3,0.8%,-5
O=P(NC1CCCCC1)(c1ccccc1)c1ccccc1,7,-2.1,0.9,-4,-2.3%,-3
O=S(=O)(c1ccccc1)N(Cc1ccccn1)Cc1ccccn1,/,-1.1,0.5,2,0.7%,1
COc1ccc(CCCNC(=O)C2CCC(=O)N(Cc3ccccc3F)C2)cc1 (stereo unspecified),5,5.7,-0.9,2,-0.2%,1
O=C(c1cnccn1)N(c1ccccc1)C1(C(=O)NC2CCCC2)CCCCC1,5,-2.1,-0.4,5,0.1%,21
CCOc1ccc(/C(C)=N/NC(=O)Cn2nc([N+](=O)[O-])cc2C)cc1,10,-2.3,1.2,0,7.4%,-21
CCCCn1c(N)c(N(CCC(C)C)C(=O)COC(=O)c2sccc2C)c(=O)[nH]c1=O,-5,0.2,-0.2,-1,-1.1%,-5
CCC(C)(C)NC(=O)C(c1ccc(OC)cc1)N(C(=O)CCC(=O)Nc1cc(C)on1)c1ccccc1F (stereo unspecified),-9,1.3,0.1,7,0.8%,3
Cc1ccc(S(=O)(=O)Nc2c(C)n(C)n(-c3ccccc3)c2=O)cc1C(=O)OCC(=O)N1CCCC(C)C1 (stereo unspecified),6,0.6,0.6,6,-1.7%,-2

# Not a hit list. Share with any hit: about 1.3%.
